MLL AF4-AF9 inh = inhibitors of AF4 peptide binding to AF9, primary screen, biochemical, AlphaScreen, biotin-AF4 peptide, FLAG-AF9, single point. AID 651704, 2012. actives 0.47% (n = 350,000). inhibition, % at 10 µM. Protein AF-9 (Homo sapiens), P42568;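 active = every replicate reaching a set inhibition limit, whatever the replicate mean, cut at about 25% in these data; inconclusive = mean inhibition reaches that limit but some replicates miss it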;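 also: 0% = plate neutral control median and 100% = total signal loss; the record names both 10 and 1 µM as test concentration; the first replicate is given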
Target sequence (P42568 whole entry, looked up): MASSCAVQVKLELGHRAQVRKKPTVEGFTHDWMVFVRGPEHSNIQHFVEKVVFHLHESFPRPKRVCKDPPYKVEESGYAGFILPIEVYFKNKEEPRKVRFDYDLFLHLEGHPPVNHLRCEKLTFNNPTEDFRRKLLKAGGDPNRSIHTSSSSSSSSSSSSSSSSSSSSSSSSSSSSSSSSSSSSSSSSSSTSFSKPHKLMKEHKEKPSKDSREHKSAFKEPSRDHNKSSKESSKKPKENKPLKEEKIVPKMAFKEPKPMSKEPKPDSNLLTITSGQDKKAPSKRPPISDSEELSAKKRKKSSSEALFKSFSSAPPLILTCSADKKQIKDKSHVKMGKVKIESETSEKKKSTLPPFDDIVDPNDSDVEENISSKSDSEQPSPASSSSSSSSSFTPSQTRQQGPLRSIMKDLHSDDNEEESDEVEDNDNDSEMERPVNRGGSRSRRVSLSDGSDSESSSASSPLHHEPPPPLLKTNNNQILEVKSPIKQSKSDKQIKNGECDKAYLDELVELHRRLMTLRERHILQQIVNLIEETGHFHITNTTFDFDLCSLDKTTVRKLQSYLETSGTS
rRNA inh HTS = reduced GFP signal of wild-type E. coli, primary screen, bacterial rRNA inhibitor project, GFP/RFP fluorescence, OD600, single point. E. coli WT GFP vs humanized-ribosome RFP mutants, 24 h; hits give low values; DMSO median 0, no signal -100. GFP signal change (wild-type ribosome), % (concentration not given with the values). actives 1.6% (n = 350,000). AID 720706, 2013;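 active = significant combined selectivity score with lowered wild-type GFP, culture density cut under 30%, mutant RFP and density less affected; inactive = any of these conditions unmet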; also: one replicate is shown; some compounds called inactive have numbers as strong as hits
UCH37 DUB inh = inhibitors of human UCH37 deubiquitinase, primary screen, biochemical, Ub-AMC cleavage, fluorescence. Ubiquitin carboxyl-terminal hydrolase isozyme L5 (Homo sapiens), Q9Y5K5. purified proteasome/UCH37. inhibition, % (no concentration beside the values). actives 0.33% (n = 330,000). AID 588478, 2011;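 active = mean of two replicates above 20%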;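 also: 0% = compound-free wells with enzyme and 100% = wells lacking proteasome; stock transfer was 100 nL into about 20 µL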
Target sequence (Q9Y5K5 whole entry, looked up): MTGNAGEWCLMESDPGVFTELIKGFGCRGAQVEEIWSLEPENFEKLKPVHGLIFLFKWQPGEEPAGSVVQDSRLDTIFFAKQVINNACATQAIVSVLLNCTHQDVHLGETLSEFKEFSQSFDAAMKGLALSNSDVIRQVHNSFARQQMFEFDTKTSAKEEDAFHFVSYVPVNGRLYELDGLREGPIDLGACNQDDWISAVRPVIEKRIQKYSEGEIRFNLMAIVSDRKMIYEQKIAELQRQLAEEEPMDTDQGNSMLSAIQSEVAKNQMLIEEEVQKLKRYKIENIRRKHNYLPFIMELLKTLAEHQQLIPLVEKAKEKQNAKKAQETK
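Material: Human UCH37 enzyme supplied as purified proteasome complex | Schedule: 30 min preincubation with enzyme, 25 min cleavage at room temperature | Detection: AMC fluorescence 355/460 nm | Measure: % inhibition of Ub-AMC cleavage fluorescence | Controls: Wells without proteasome as full block, compound-free enzyme plus substrate as uninhibited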
FGF22 binding = binders of human FGF22 protein, primary screen, FGF22 synaptogenesis inhibitor project, biophysical, thermal shift, single point. calls only at 9.99 µM. recombinant FGF22 thermal shift, SYPRO orange fluorescence; percent of sucrose octasulfate shift, DMSO zero. actives 1.5% (n = 340,000);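 active = melting point raised past a set limit in the mean and every replicate; inconclusive = no clear call; three in four hits are not shown here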
Target sequence (Q9HCT0 whole entry, looked up): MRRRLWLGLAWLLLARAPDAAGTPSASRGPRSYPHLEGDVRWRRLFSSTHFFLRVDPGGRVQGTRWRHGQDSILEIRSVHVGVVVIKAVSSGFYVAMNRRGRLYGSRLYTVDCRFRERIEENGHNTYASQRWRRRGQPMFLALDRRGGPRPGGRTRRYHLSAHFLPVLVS
Ecoli growth = E. coli growth inhibition, primary screen, OD600; OD600 absorbance (no concentration beside the values); Escherichia coli growth, 23 h; hits give low values; actives 0.21% (n = 330,000);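 active = OD600 absorbance below the run mean of sample wells minus 3.6 SD, in any replicate, cut at about 0.56 in these data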;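 also: stock transfer was 300 nL into about 60 µL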
Bfl-1 A1 inh = caspase 3/7 activation in MEF A1-2A-BIM cells, primary screen, A1 inhibitor project, cell-based, luminescence, HTS. caspase activation, % (test concentration not listed). actives 0.066% (n = 330,000). Caspase-Glo 3/7 luminescence, 3 h; percent of clofoctol response, vehicle zero;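 active = over half of replicate activation scores above 10%, or exactly half above 10 with the replicate mean above 10; inconclusive = replicate mean below 10 yet half the replicates above 10; inactive = over half of replicates below 10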;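 also: wells of about 30 µL received 50 nL stock; many hits fall short of the cut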
T cruzi inh = inhibitors of intracellular T. cruzi growth, primary screen, luminescence, NIH3T3 host cells; T. cruzi beta-gal in NIH3T3, 90 h; inhibition, % (concentration not given with the values); actives 1.4% (n = 300,000); AID 1885, 2009;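 active = mean inhibition across valid replicates above about 55%, limit read from the data; inconclusive = mean below that limit but half or more replicates reach it; inactive = mean below it, under half of replicates reach it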;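 also: signal also drops with host cell toxicity which is not excluded here; 0% = plate median of DMSO wells and 100% = zero luminescence signal; higher percent means less beta-gal luminescence so fewer parasites; stock transfer was 50 nL into about 50 µL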
Beta cell apopt = inhibitors of cytokine-induced beta cell apoptosis, primary screen, luminescence; actives 0.8% (n = 300,000); protection from apoptosis, % (test concentration not listed); INS-1E cytokine-induced death, ATP luminescence, 48 h; percent of positive-control rescue, neutral wells zero; AID 435005, 2010;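 active = all replicates at 75% or more, or half of them and the mean; inconclusive = half reach 75% but not the mean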;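 also: 0% = cytokine-treated negative control wells and 100% = positive control rescue; higher means more ATP so stronger rescue from cytokine killing; wells of about 40 µL received 100 nL stock; the first replicate is given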
rRNA inh HTS OD600 = also measured in rRNA inh HTS; calls as there; OD600 change, %; measured here: OD600 growth;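 optical density of the mix in the first replicate; 0 = DMSO median and -100 = no signal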
rRNA inh HTS RFP = also measured in rRNA inh HTS; calls as there; RFP signal change, %; measured here: RFP humanized mutant strains;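 first replicate; 0 = DMSO median and -100 = no signal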
* hit, by the source's call; i = inactive; ? = inconclusive; / = not tested or not shown. Some of the compounds tested. The share of hits here may be higher or lower than overall.

SMILES	MLL AF4-AF9 inh	rRNA inh HTS	rRNA inh HTS OD600	rRNA inh HTS RFP	UCH37 DUB inh	FGF22 binding	Ecoli growth	Bfl-1 A1 inh	T cruzi inh	Beta cell apopt
Cc1ccc(CNc2oc(-c3cccs3)nc2C#N)cc1	/	/	/	/	-282	/	0.69	0.1	6	5
COc1cccc(N2CCN(CC(=O)c3c[nH]c4ccc(OC)cc34)CC2C)c1 (centres undefined)	/	/	/	/	0.2	/	0.69	2.7	8	-1
COCC(=O)Nc1sc2c(c1C(=O)OC)CCC(C)C2 (centres undefined)	/	/	/	/	-0.4	/	0.66	0.2	-5	2
Cc1c(Cc2ccccc2)c(=O)oc2c(C)c(OC(C)C(=O)N[C@@H](Cc3ccccc3)C(=O)O)ccc12 (some centres undefined)	-3.0	/	/	/	-79	i	0.69	0.8	8	/
Cc1cc(C)c(C(=O)COC(=O)c2ccc([N+](=O)[O-])o2)cc1C	8.2	-6	2	-3.8	4.6	i	0.61	1.0	2	-10
COC(=O)n1ccc(C(=O)Nc2ccccc2F)n1	/	/	/	/	1.2	/	0.69	-0.7	-6	-3
COc1ccc(C2(C)NC(=O)NC2=O)cc1OC (centres undefined)	0.2	1	9	-0.1	2.5	i	0.69	-0.8	-14	/
COc1ccc(C(=O)CN2C(=O)NC(C)(c3ccc(C)cc3)C2=O)cc1OC (centres undefined)	/	/	/	/	-2.4	/	0.75	0.6	-12	-8
COCOc1cc(O)c(C(=O)/C=C/c2ccccc2)c(OCOC)c1	5.2	/	/	/	5.4	i	0.69	0.7	-25	4
COC(=O)CCn1nc(-c2ccc(Cl)cc2)c2ccccc2c1=O	-4.3	-5	-23	-15	5.5	i	0.69	0.2	-2	6
CC(C)(C)c1ccc(/C=C/C(=O)N2CCc3ccccc3C2)cc1	6.1	-9	-10	2.8	2.3	i	0.65	-1.2	15	/
COC(=O)CN(c1ccccn1)S(=O)(=O)c1ccccc1	/	/	/	/	-38	/	0.75	0.0	2	-2
Cc1cccc(-c2ocnc2C(=O)Nc2ccccc2C(=O)N2CCCC2)c1	-10	-6	-8	-3.2	5.1	i	0.69	0.0	6	-9
CC(Cc1cccs1)N(Cc1ccc(Cl)cc1)C(=O)c1ccncc1 (centres undefined)	2.4	-24	-26	-16	3.3	i	0.65	0.3	18	0
C=CCN(c1ccccc1OC)S(=O)(=O)c1cccc(C(=O)OCC(=O)N2CCOCC2)c1	-8.3	-9	-5	-0.6	0.1	i	0.66	-0.4	/	1
CCCCN(C(=O)C1CCC1)c1c(N)n(Cc2ccccc2)c(=O)[nH]c1=O	-0.1	/	/	/	4.4	i	0.68	0.1	/	-2
O=C(Nc1ccc(SC(F)F)cc1)C1=COCCO1	7.9	4	-7	-3.2	6.9	i	0.66	-1.2	1	-2
CCn1c(SCC(N)=O)nnc1-c1ccc(S(=O)(=O)N2CCN(C)CC2)cc1	/	/	/	/	0.8	/	0.66	0.4	-9	-3
Cc1cnc(NC(=O)c2ccc3ncsc3c2)s1	14	7	5	2.8	0.9	i	0.64	/	/	/
O=C(CSC1=NCCS1)Nc1nc2c(s1)CCCC2	/	/	/	/	1.6	/	0.71	-0.9	-8	-6
CC(NC(=S)Nc1c(Br)cccc1OC(F)F)C(C)(C)C (centres undefined)	/	/	/	/	4.8	/	0.71	1.1	20	-1
O=C(COC(=O)CSc1cc(Cl)ccc1Cl)Nc1ncc(C(F)(F)F)cc1Cl	-0.8	-4	3	1.4	0.5	i	0.66	0.6	-2	0
COc1cccc2c(Nc3ccccc3C)cc(C)nc12	6.8	-5	-9	0.6	4.1	i	0.59	-0.2	27	52
COC(=O)c1ccc(COc2ccccc2/C=N/NC(=O)c2cccnc2)cc1	-5.3	1	7	-4.8	/	i	/	-1.4	-5	-4
Cc1cc(=O)cc(C)n1-c1ccc(Br)cc1	-0.3	17	17	2.4	1.2	i	0.7	0.4	-12	2
The results go on:
SMILES	MLL AF4-AF9 inh	rRNA inh HTS	rRNA inh HTS OD600	rRNA inh HTS RFP	UCH37 DUB inh	FGF22 binding	Ecoli growth	Bfl-1 A1 inh	T cruzi inh	Beta cell apopt
COc1ccc(NC(=O)CCCn2cnc3ccccc3c2=O)cc1	-7.7	-12	-13	2.4	6.6	i	0.68	-0.1	-11	/
Cc1ccc2scc(CN3CCCC3)c2c1	-5.5	17	-2	3.6	1.1	i	0.68	-0.1	17	-5
COc1ccc(NC(=S)N(CCCN2CCCCCC2)Cc2cccs2)cc1	-2.2	12	6	2.8	4.2	i	0.66	1.4	25	-7
O=[N+]([O-])c1ccccc1N=Nc1ccc(O)cc1O	1.6	-3	13	-2.0	21*	/	0.67	/	/	/
CCOc1cc(C(=O)NCc2nnc(SCC(=O)OC)n2C)cc(OCC)c1OCC	/	/	/	/	3.6	/	0.65	0.5	-10	0
O=C(Nc1ccc(-c2nnc3n2CCCCC3)cc1)c1ccco1	0.1	6	4	3.7	2.6	i	0.69	0.4	-9	-2
COCc1cc(C)nc(SCC(=O)Nc2ccc3[nH]c(=O)[nH]c3c2)c1C#N	1.0	2	5	-3.0	1.6	i	0.66	-0.1	11	/
Cn1c(SCc2nc3cc(C(=O)O)ccc3c(=O)[nH]2)nnc1C(F)(F)F	-0.6	7	10	1.9	-11	i	0.7	0.8	-2	2
c1cc2c(cc1-c1csc(NNC3=NCCCCC3)n1)OCCO2	?	14	18	-1.4	2.5	i	0.87	-0.4	52	4
COc1ccc(C(=O)OCC(=O)NC23CC4CC(CC(C4)C2)C3)c(OC)c1OC	0.5	-60	-76	-17	3.9	i	0.7	-1.3	/	-3
CN1CCN(S(=O)(=O)c2ccc(Oc3cccc(C(F)(F)F)c3)nc2)CC1	5.5	-5	-2	-3.7	-0.2	i	0.7	-0.6	21	-2
O=C(NNC(=O)c1ccccc1C(=O)O)c1ccc(S(=O)(=O)N2CCCCC2)cc1	4.7	7	13	-1.0	1.6	i	0.68	/	5	/
O=C(Nc1ccnn1C1CCN(CC2CC=CCC2)CC1)c1ccccc1Cl (centres undefined)	1.3	12	12	0.9	3.0	i	0.69	-0.5	4	-3
COc1cc(OC)cc(C(=O)NNC(=O)CCNS(=O)(=O)c2ccc(Br)cc2)c1	-0.9	-6	-5	0.5	0.9	i	0.69	0.2	/	-3
COc1cccc(NC(=O)CN2C(=O)NC3(CCc4ccccc43)C2=O)c1 (centres undefined)	1.1	17	7	3.0	-1.4	i	0.67	-0.3	/	-4
Cc1ccc(/C=C/C(=O)O)cc1S(=O)(=O)Nc1ccc2c(c1)OCO2	-1.9	5	2	-0.1	1.2	i	0.64	1.5	-6	-5
CCCCCCNS(=O)(=O)c1ccc(Cl)s1	/	/	/	/	5.8	/	0.68	0.4	6	3
CCc1cc(=O)oc2cc(C)cc(OCC(=O)NC3CC3)c12	-2.9	-6	-7	-4.4	-63	i	0.72	0.9	-4	0
Cc1ccc(C(=O)C[n+]2ccc3ccccc3c2)cc1	-0.9	5	9	0.9	3.0	i	0.68	0.1	22	3
OC(c1cccnc1)c1cccs1 (centres undefined)	/	/	/	/	1.5	/	0.72	0.7	1	-8
CCOC(=O)/C(C#N)=C1/SC(CC)C(=O)N1c1ccc(C)cc1 (centres undefined)	/	/	/	/	2.1	/	0.83	-0.9	8	-4
Cc1ccc(N2CCN(C(=O)C3CCCN(c4ncnc5c4nc4n5CCCCC4)C3)CC2)c(C)c1 (centres undefined)	-1.3	18	15	3.1	3.8	i	0.69	-0.7	-6	11
S=c1[nH]nc(Cn2nnc3ccccc32)n1-c1ccccc1	-5.9	11	12	0.5	-2.4	i	0.71	-0.2	-9	/
COC(=O)c1[nH]c(C)c(/C(O)=C2\C(=O)C(=O)N(CCN(C)C)C2c2ccco2)c1C (centres undefined)	2.6	14	2	-8.8	11	i	0.64	-0.5	4	-9
CCOc1ccc(NC(=O)NC2CCS(=O)(=O)C2)cc1 (centres undefined)	-0.7	4	8	-0.8	3.7	i	0.68	0.1	-9	-6
Other records follow.
SMILES	MLL AF4-AF9 inh	rRNA inh HTS	rRNA inh HTS OD600	rRNA inh HTS RFP	UCH37 DUB inh	FGF22 binding	Ecoli growth	Bfl-1 A1 inh	T cruzi inh	Beta cell apopt
Cc1ccc(C(=O)OCn2ncc(Cl)c(Cl)c2=O)cc1	/	/	/	/	4.5	/	0.69	0.3	50	101*
CC1CCCCC1NC(=O)/C(C#N)=C/c1ccccc1F (centres undefined)	2.8	-27	-23	-1.9	4.0	i	0.68	-0.1	5	6
O=C(NCCc1c[nH]c2ccccc12)c1cc2sccc2n1Cc1ccccc1	/	/	/	/	4.2	/	0.75	-0.2	18	-7
COc1ccc(-n2c(SCC(=O)N3CCCCC3)nc3ccccc3c2=O)cc1	-5.3	12	10	-1.0	2.0	i	0.65	/	26	/
COC(=O)C(C)(C)ONC(=O)Nc1ccccc1[N+](=O)[O-]	1.7	8	-3	-0.1	6.5	i	0.7	0.3	9	-2
Cc1cc(C(=O)COC(=O)C2CC2)c(C)n1-c1ccc(F)cc1	1.4	-25*	-8.5*	-5.5*	0.2	i	0.7	-5.0	-5	-5
CCOC(=O)c1c(NC(=O)Cn2nc(C(=O)O)c3ccccc3c2=O)sc(C)c1C	-6.8	-5	-13	0.2	-5.2	i	0.71	0.0	-5	-3
Cc1ccccc1NC(=S)Nc1ccc2cn[nH]c2c1	3.0	-2	0	-5.6	1.4	i	0.71	-0.2	-21	-5
O=C(Nc1cccnc1Cl)c1cc2c(s1)-c1ccccc1OC2	-4.7	-2	0	-2.9	-188	i	0.7	-0.9	-12	4
CC(C)C(NC(=O)c1ccc(C(C)(C)C)cc1)C(=O)N1CCCC1 (centres undefined)	4.0	0	-2	-0.3	5.1	i	0.67	0.1	-2	-4
COc1ccc(C2CC(=O)C3=C(C2)Nc2ccccc2N(C(=O)CCC(=O)O)C3c2ccc(F)cc2)cc1 (centres undefined)	-37	0	-3	-2.4	-8.6	i	0.68	?	-1	-5
O=C(CCl)NCc1cc(-c2ccc(Cl)cc2)no1	-0.9	9	-2	5.5	3.5	i	0.7	-0.2	51	-8
CC(C)c1ccc(CNn2cnnc2)cc1	-1.8	18	14	5.2	/	i	/	0.1	-3	-5

Arranged by the number under rRNA inh HTS OD600 (highest first): some entries from above
SMILES | MLL AF4-AF9 inh | rRNA inh HTS | rRNA inh HTS OD600 | rRNA inh HTS RFP | UCH37 DUB inh | FGF22 binding | Bfl-1 A1 inh
O=C(Nc1cccnc1Cl)c1cc2c(s1)-c1ccccc1OC2 | -4.7 | -2 | 0 | -2.9 | -188 | i | -0.9
Cc1cc(C(=O)COC(=O)C2CC2)c(C)n1-c1ccc(F)cc1 | 1.4 | -25* | -8.5* | -5.5* | 0.2 | i | -5.0
CC1CCCCC1NC(=O)/C(C#N)=C/c1ccccc1F (centres undefined) | 2.8 | -27 | -23 | -1.9 | 4.0 | i | -0.1

Source: PubChem
